Screening data from PubChem BioAssay.
KCNQ2 pot – enhances the rat KCNQ2 potassium channel; O88943; CHO-K1 KCNQ2, FluxOR thallium flux fluorescence; stronger effect = higher value; B-score at 10 µM; 0.54% of 310,000 active; AID 2239;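 active = fluorescence ratio B-score at least 3 SD of library B-scores, with initial fluorescence B-score within 3 SD, cut at about 5.3 in these data; same plate scores as AID 2156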;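 note: B-score of peak minus minimum over baseline fluorescence ratio after K+ and Tl+ stimulus; positive B-score means potentiation of KCNQ2 with more thallium influx and brighter signal; only the inactives scoring about 0 or higher are listed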
Target sequence (O88943 whole entry, looked up): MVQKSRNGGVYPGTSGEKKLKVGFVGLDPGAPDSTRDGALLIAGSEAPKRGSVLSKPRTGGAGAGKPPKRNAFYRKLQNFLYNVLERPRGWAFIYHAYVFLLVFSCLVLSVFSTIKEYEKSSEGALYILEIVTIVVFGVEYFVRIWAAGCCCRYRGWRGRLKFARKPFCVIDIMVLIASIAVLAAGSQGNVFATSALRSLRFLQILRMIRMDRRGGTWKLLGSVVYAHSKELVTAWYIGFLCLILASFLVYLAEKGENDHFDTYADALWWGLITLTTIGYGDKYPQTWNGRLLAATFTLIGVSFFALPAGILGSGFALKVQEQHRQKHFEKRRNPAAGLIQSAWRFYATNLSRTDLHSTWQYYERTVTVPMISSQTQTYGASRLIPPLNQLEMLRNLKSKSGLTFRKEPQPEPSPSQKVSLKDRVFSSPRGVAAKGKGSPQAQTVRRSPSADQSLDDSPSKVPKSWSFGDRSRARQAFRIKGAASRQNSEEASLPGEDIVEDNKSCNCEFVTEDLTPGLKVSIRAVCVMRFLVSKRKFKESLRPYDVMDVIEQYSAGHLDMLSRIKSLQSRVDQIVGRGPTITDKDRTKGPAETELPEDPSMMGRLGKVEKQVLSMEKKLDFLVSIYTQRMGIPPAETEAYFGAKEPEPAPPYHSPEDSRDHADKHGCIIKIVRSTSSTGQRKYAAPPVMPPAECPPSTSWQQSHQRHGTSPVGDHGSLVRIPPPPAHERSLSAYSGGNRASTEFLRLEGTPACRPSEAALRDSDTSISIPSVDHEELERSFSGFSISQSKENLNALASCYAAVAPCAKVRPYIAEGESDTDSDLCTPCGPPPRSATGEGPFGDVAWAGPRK
KCNQ2 pot baseline – recorded beside KCNQ2 pot, whose call it bears; B-score; compound at 10 µM; measured here: initial fluorescence intensity artifact check;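 brightness before thallium and not channel activity; 0 = typical well and far values either way flag optical interference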
Active calls of the source: *; x = not tested or not shown. The list is partial; rates above refer to the full screens.

KCNQ2 pot	KCNQ2 pot baseline	Molecule
0.87	0.02	CCCCn1c(SCC(=O)NC2CCS(=O)(=O)C2)nc2ccccc2c1=O (centres undefined)
0.23	-2.3	CC1(C)CCc2c([nH]c3ccccc3c2=O)O1
0.64	2.2	Fc1ccccc1OCCCCN1CCCCC1
3.1	0.15	N#C/C(=C\c1c[nH]c2ccccc12)C(=O)NCC1CCCO1 (centres undefined)
1.1	0.83	O=C(c1ccc(OC2CCN(CCc3ccccc3)CC2)cc1)N1CCCCC1CCCO (centres undefined)
0.69	-0.59	O=C(CC1CCCCC1)Nc1ccc(-c2ccc3nncn3n2)cc1
1.9	0.63	COc1ccccc1/C=C/C(=O)OCC(=O)Nc1c(F)cccc1F
0.69	2.2	CCc1ccc[n+](-c2[nH]c(=O)sc2/C=N/N=C(\[O-])c2cccnc2)c1
1.2	-2.2	Cc1cccnc1NC(=O)CSc1nnc(Cc2ccccc2)o1
0.01	-2.4	CN(N=Nc1cccc([N+](=O)[O-])c1)c1ccccc1

Brought forward from above: six compounds, followed by the next part.
KCNQ2 pot	KCNQ2 pot baseline	Molecule
1.1	0.83	O=C(c1ccc(OC2CCN(CCc3ccccc3)CC2)cc1)N1CCCCC1CCCO (centres undefined)
0.69	-0.59	O=C(CC1CCCCC1)Nc1ccc(-c2ccc3nncn3n2)cc1
1.9	0.63	COc1ccccc1/C=C/C(=O)OCC(=O)Nc1c(F)cccc1F
0.69	2.2	CCc1ccc[n+](-c2[nH]c(=O)sc2/C=N/N=C(\[O-])c2cccnc2)c1
1.2	-2.2	Cc1cccnc1NC(=O)CSc1nnc(Cc2ccccc2)o1
0.01	-2.4	CN(N=Nc1cccc([N+](=O)[O-])c1)c1ccccc1
0.17	0.37	CS(=O)(=O)c1ccc(Cl)c(NC(=O)Cc2ccccc2F)c1
0.01	0.53	Cc1cccc(N=C2NC(=O)CS2)c1C
0.65	-0.91	O=C(NCc1ccco1)c1cc(-c2ccncc2)nc2ccccc12
0.23	-0.2	C=CCn1c(C)cc(C(=O)COC(=O)/C=C/c2c(C)nn(C3CCS(=O)(=O)C3)c2Cl)c1C (centres undefined)
0.87	0.76	O=C(O)CCCC(=O)Nc1ccc(Cl)cc1
1.3	-1.3	CCC(CCC(=O)Nc1cccc(C(=O)O)c1)C(=O)O (centres undefined)
1.9	-0.84	COc1cccc(Cn2cnc3c(NS(=O)(=O)c4ccc(Cl)cc4)c(C)c(C)cc32)c1
0.59	-1.7	Cc1nn(-c2ccccc2)c(Cl)c1/C=N/Nc1nncc(=O)[nH]1
-5.6	x	CCC(C(=O)N1CCN(c2cccc(Cl)c2)CC1)c1ccccc1 (centres undefined)
1.2	0.98	CCOC(=O)C1C(c2ccc(OC)cc2)N(C)OC1(O)C(F)(F)F (centres undefined)
0.43	0.86	O=C(Nc1cccc(O)c1)c1ccccc1[N+](=O)[O-]
0.82	1.1	CCCCCCN(C(=O)CCCCCN1C(=O)NC(c2ccc(-c3ccccc3)cc2)C(C(=O)OCc2ccccc2)=C1C)C(C(=O)NCCCC)c1ccc(OCC(=O)OC)cc1 (centres undefined)
0.45	-0.09	CC12CCC(C(=O)Nc3cccc(NC(=O)C45CCC(C)(C(=O)O4)C5(C)C)n3)(OC1=O)C2(C)C
2.2	-1.6	CS(=O)(=O)c1cnc(-c2cccnc2)nc1N
1.1	-0.45	O=C(Nc1ccccc1)O[C@@H]1C[C@H]2CCC(=O)N3CC[C@@H](C1)[C@@H]23
1.1	0.13	COCC(C)NCc1ccccc1C (centres undefined)
0.04	1.8	O=S(=O)(c1ccc2nc(N3CCN(c4ccccc4)CC3)ccc2c1)N1CCCCC1
0.01	1.4	Cc1ccc(NC(=O)C(C)[n+]2ccccc2)cc1[N+](=O)[O-] (centres undefined)
0.87	-0.08	COc1ccc(C2CCCN2C(=O)Nc2ccc(F)cc2)cc1OC (centres undefined)
1.6	0.04	O=C(NCc1cccnc1)c1ccc(COc2ccc(Cl)cc2)cc1
0.02	-0.46	CSc1ccc(CN2CCN(C3CCCC3)C(CCO)C2)cc1 (centres undefined)
0.31	4.2	CCOP(=O)(c1c(F)c(F)c(F)c(F)c1F)C1(O)CCCCC1 (centres undefined)
0.82	-1.7	COC(=O)c1sc2nc(C)cc(-c3ccccc3)c2c1N
0.91	-0.78	COc1ccc(C(=O)N2CCc3c([nH]c4ccccc34)C2C(F)(F)F)cc1 (centres undefined)
1.1	-0.97	COC/C=C/C1=CC2=CC(=O)C(C)(OC(=O)c3cnc4ccccc4n3)C(=O)C2=CN1Cc1ccco1 (centres undefined)
0.87	-0.5	COc1cc(/C=N\NC(=O)C2CC3C=CC2C3)ccc1O (centres undefined)
0.03	-0.02	c1ccc2c(c1)nnn2-c1ncnc2sccc12
0.54	-0.1	O=C(Nn1cnnc1)c1cc(Cl)cc(Cl)c1
0.03	-0.31	O=C(N/N=C/c1cccnc1)c1cc(-c2ccc(Cl)cc2)nc2ccccc12
0.26	-2	COc1ccc(N(CC(=O)NC(C)(C)C)C(=O)c2ccco2)cc1
0.1	-2.6	O=C(Nc1ccc(F)cc1F)N1CCN(C(=O)c2ccco2)CC1
0.05	-0.03	Cc1ccc(Cl)c(OC(=O)Cn2cnc3c2c(=O)n(C)c(=O)n3C)c1
0.36	-0.77	NS(=O)(=O)c1ccc(NC(=O)CSc2nc3ccccc3[nH]2)cc1
1.6	0.5	COc1cc(N)ccc1-c1cc2ccccc2oc1=O
0.31	-0.8	Cc1ccc(C(=O)Nc2c3c(nn2C(C)(C)C)CS(=O)(=O)C3)cc1[N+](=O)[O-]
0.13	-0.12	CCOC(=O)/C=C/C(=O)OCC(=O)NCc1ccccc1
0.21	-0.76	O=C(Oc1ccccc1C(=S)N1CCCCC1)c1cc([N+](=O)[O-])cc([N+](=O)[O-])c1
0.01	-1.5	COc1ccc(-n2c3c(cc(C(=O)N4CCCCC4)c2=O)C(=O)CC(C)(C)C3)cc1
0.1	-0.48	COC(=O)c1ccccc1NC(=S)NC(=O)C1CCCCC1
0.22	-0.01	O=C1CCC(C(=O)N2CCCC2)CN1CCc1cccc(F)c1 (centres undefined)
0.52	-0.11	O=C(OCC(=O)N1CCCC1)c1ccc(S(=O)(=O)Nc2ccccc2)cc1
0.07	-1.4	Cc1ccc(S(=O)(=O)CCc2nc3ccccc3[nH]2)cc1
0.12	0.45	S=C(Nc1ccccc1)Nn1cnnc1
0.58	1.2	CC1CCN(c2ccc(NC(=O)Cc3ccccc3)cc2)CC1
0.97	-1.4	CCOCCCN(Cc1ccco1)C(=O)c1cc2c(=O)[nH]c3ccc(C)cc3c2s1
1.4	1.1	Cc1c(C(=O)n2cnc3ccccc32)cccc1[N+](=O)[O-]
0.04	-1.2	c1ccc(-c2csc(N3CCc4ccccc4C3)n2)cc1
0.73	-0.66	Cc1cc(C)cc(N(CC(=O)N2CCC(C)CC2)S(C)(=O)=O)c1
0.02	2.5	CC(Sc1ccc(Cl)cc1)C(=O)NNC(=O)c1ccccc1O (centres undefined)
0.41	-2.1	COc1ccc(/C(C)=N/OCC(=O)Nc2nc3ccccc3s2)cc1

Next entries follow.
KCNQ2 pot	KCNQ2 pot baseline	Molecule
1.3	2.1	c1ccc2c(c1)OCC(c1csc3ncnc(N4CCOCC4)c13)O2 (centres undefined)
1	1	CCOC(=O)CC(=O)Nc1ccn[nH]1
0.86	-0.46	CCC(C)Cn1c(C)nc2ccccc21 (centres undefined)
1.1	2.1	Cc1ccc(S(=O)(=O)Nc2ccc(NC(=O)c3c(F)c(F)c(F)c(F)c3F)cc2)cc1
0.41	-0.04	COc1ccc2nc(NC(=O)C3CCN(S(=O)(=O)c4cccs4)CC3)sc2c1
1.3	-0.08	CC(Oc1ccccc1)c1ccn[nH]1 (centres undefined)
0.01	0.59	O=C(Nc1ccc(-c2csc(-c3ccccc3)n2)cc1)c1ccccc1Cl
0.86	-1	C=CCn1cnc2scc(-c3ccc(OC)cc3)c2c1=O
0.73	-0.68	CCCCOC(=O)/C=C/c1c(C)[nH]c(=O)[nH]c1=O
0.57	-0.24	CCN(CC(=O)Nc1c(F)cccc1F)C(=O)Cc1ccccc1
0.57	-1.5	CCOC(=O)NCCc1ccc(OC)cc1
1.8	-1.7	O=C(c1cccc(Cl)c1)C1CCCN(C(=O)c2ccoc2)C1 (centres undefined)
0.73	-0.59	O=C(NC1CCCC1)C(c1ccsc1)N(C(=O)Cc1cccs1)c1ccc(F)cc1 (centres undefined)
0.35	1.5	CCOc1ccc(S(=O)(=O)Nc2ccc(C(=O)NCCCN3CCCC3=O)cc2)cc1
0.94	0.81	CSCC[C@H](NC(=O)Nc1ccc(S(N)(=O)=O)cc1)C(=O)O
0.09	-0.49	O=C(NCCO)NC(=S)c1ccccc1
1.5	-1.1	CN(C)c1ccc(/C=N\S(=O)(=O)c2ccccc2)cc1
1.8	-0.49	COC(=O)c1ccccc1NC(=O)C1CCN(S(=O)(=O)c2cc(OC)ccc2OC)CC1
0.83	-0.78	Cc1ccc(NC(=O)CSc2nnc3ccccn23)cc1S(=O)(=O)N1CCOCC1
0.18	-0.34	COC(=O)/C(=C(O)\C=C\c1ccccc1[N+](=O)[O-])c1nc2ccccc2[nH]1
0.62	0.49	Cc1cc(C2=NNC(=NC3CCCCC3)SC2)c(C)n1-c1c(C)n(C)n(-c2ccccc2)c1=O
1.8	-0.84	CC(C)CC(NC(N)=O)C(=O)Nc1ccc(Oc2ccccc2)cc1 (centres undefined)
0.07	-0.12	COc1ccc(OCCn2cc(/C=C(\C#N)C(=O)NCc3ccco3)c3ccccc32)cc1
0.29	2.4	Cc1c(C)n2c3c(cccc13)CC2
0.46	-2.6	NNC(=O)C1COc2cc3ccccc3cc2O1 (centres undefined)
0.51	-0.56	O=C(CSc1ccc2ccccc2c1)NCc1cccs1
0.67	-0.4	COCC(C)N1CC(O)=C(c2nc(-c3ccc(Cl)cc3)cs2)C1=N (centres undefined)
0.6	1.8	CC(=O)Nc1ccc2sc(NC(=O)CN3CCOCC3)nc2c1
0.1	-0.66	CC(=O)N1CCN(c2nnc(-c3ccc(C)cc3)c3ccccc23)CC1
2.7	-2.1	O=S(=O)(Nc1nc2ccc(Cl)cc2s1)c1cccs1
0.03	0.17	Cc1cccc(Nc2nc(N)c(C#N)c(CC#N)c2C#N)c1
0.52	-1.4	CCCSc1ccc([C@H]2N[C@@](C)(C(=O)OC)[C@H]3C(=O)N(C)C(=O)[C@@H]23)cc1OC
1.5	1	CCOC(=O)C1C(=O)OC(C)(C)C1C(C)C(=O)c1ccccc1 (centres undefined)
0.82	-2	CCc1cccc(NC(=O)Cn2ncn3c(cc4ccccc43)c2=O)c1
1.1	-0.06	CCOC(=O)c1[nH]c(=O)[nH]c1CSc1ccccn1
1.5	0.35	Cn1nnnc1SCCNC/C=C/c1ccccc1
0.83	-2	COc1ccc(OCC(O)CNC(=O)Nc2cc(C)cc(C)c2)cc1 (centres undefined)
0.39	1.5	CN1CCN(C(N)=NC(=O)c2ccccc2)CC1
0.45	-1.6	CC1CN(C(=O)C2CCCN2S(=O)(=O)c2ccc(Cl)cc2)CC(C)O1 (centres undefined)
1.2	0.1	O=C(CN1C(=O)/C(=C/c2ccc(Cl)cc2)SC1=S)NC1C=CS(=O)(=O)C1 (centres undefined)
1	-0.46	Cc1cccc(N2C(=O)N(c3ccccc3C)C3CS(=O)(=O)CC32)c1 (centres undefined)
1.7	0.13	Cn1nc(C(C)(C)C)c([N+](=O)[O-])c1C(=O)Nc1cccc2ccccc12
0.91	0.18	COc1ccccc1CNS(=O)(=O)c1ccc(S(=O)(=O)NC2CC2)cc1
0.95	0.9	Cc1cc(C)n(-c2cccc3cccnc23)n1
1	-0.68	O=C(NC1=NCCS1)c1ccccc1Cl
0.23	-0.99	CS(=O)(=O)N1CCN(C(=S)NCc2ccc(F)cc2)CC1
0.12	-0.17	Cc1ccc(C2CC(=O)C=C(Nc3ccc(Cl)cc3)C2)cc1 (centres undefined)
1.7	-0.12	COc1ccc(N(CC(=O)N2CCOCC2)S(C)(=O)=O)cc1Cl
0.76	3.1	O=C(CSc1nc2ccccc2o1)c1ccccc1
0.57	-0.94	CN(C(=O)COC(=O)COc1ccc(Cl)cc1Cl)c1c(N)n(Cc2ccccc2)c(=O)[nH]c1=O

Quoted from the listing.
Cc1cc(C)n(-c2cccc3cccnc23)n1 in KCNQ2 pot → 0.95
O=S(=O)(c1ccc2nc(N3CCN(c4ccccc4)CC3)ccc2c1)N1CCCCC1 in KCNQ2 pot baseline → 1.8
O=C(Nc1cccc(O)c1)c1ccccc1[N+](=O)[O-] in KCNQ2 pot → 0.43
CSc1ccc(CN2CCN(C3CCCC3)C(CCO)C2)cc1 (centres undefined) in KCNQ2 pot baseline → -0.46
CC(Oc1ccccc1)c1ccn[nH]1 (centres undefined) in KCNQ2 pot → 1.3
CN(N=Nc1cccc([N+](=O)[O-])c1)c1ccccc1 in KCNQ2 pot baseline → -2.4

Remaining list, next part
KCNQ2 pot	KCNQ2 pot baseline	Molecule
0.63	-1.8	OCc1cccnc1
0.51	-0.26	O=C(NNC(=S)Nc1ccc(Br)cc1)c1ccccc1Br
1.7	-0.01	CC(=O)N1CCOc2ccc(S(=O)(=O)Nc3ccc(Cl)cn3)cc21
1.1	1.1	COc1ccccc1N(C)S(=O)(=O)c1ccc(Cl)c(C(=O)NCC2(N(C)C)CCCCC2)c1
1.6	-1.3	Cc1ccccc1Cc1c(C)nc2nc(SCC(=O)NCCCN3CCCCC3)nn2c1C
0.14	-2.3	OCc1nnn(-c2cccc(C(F)(F)F)c2)c1CO
1.1	0.19	CCOC(=O)c1nnn(-c2nonc2N)c1CS(=O)(=O)c1ccccc1
0.57	-0.27	COc1ccc2nc(NC(=O)CSc3nnnn3C)sc2c1
1.4	0.69	O=C(CCN1C(=O)/C(=C/c2ccccc2)SC1=S)Nc1cccnc1
1.2	-0.63	CCc1cccc(NC(=S)Nc2cccc3ccccc23)c1
0.51	-0.21	CC1=C(C(=O)Nc2ccccc2C)C(c2cccnc2)n2nc(CCCO)nc2N1 (centres undefined)
